Bioassay records: PubChem, Johns Hopkins Ion Channel Center
KCNQ2 block – KCNQ2 potassium channel inhibitors, primary screen, cell-based, CHO-K1, FluxOR thallium flux, B-score (AID 2156); 1.1% of 310,000 active; 20 min; stronger effect = lower value; only compounds with negative scores are shown here; some inactives read as strong as hits; B-score at 10 µM; O88943;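 active = fluorescence ratio B-score at most minus 3 library SDs, with starting brightness B-score within 2 library SDs, cut at about -5.5 in these data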
Target sequence (O88943 whole entry, looked up): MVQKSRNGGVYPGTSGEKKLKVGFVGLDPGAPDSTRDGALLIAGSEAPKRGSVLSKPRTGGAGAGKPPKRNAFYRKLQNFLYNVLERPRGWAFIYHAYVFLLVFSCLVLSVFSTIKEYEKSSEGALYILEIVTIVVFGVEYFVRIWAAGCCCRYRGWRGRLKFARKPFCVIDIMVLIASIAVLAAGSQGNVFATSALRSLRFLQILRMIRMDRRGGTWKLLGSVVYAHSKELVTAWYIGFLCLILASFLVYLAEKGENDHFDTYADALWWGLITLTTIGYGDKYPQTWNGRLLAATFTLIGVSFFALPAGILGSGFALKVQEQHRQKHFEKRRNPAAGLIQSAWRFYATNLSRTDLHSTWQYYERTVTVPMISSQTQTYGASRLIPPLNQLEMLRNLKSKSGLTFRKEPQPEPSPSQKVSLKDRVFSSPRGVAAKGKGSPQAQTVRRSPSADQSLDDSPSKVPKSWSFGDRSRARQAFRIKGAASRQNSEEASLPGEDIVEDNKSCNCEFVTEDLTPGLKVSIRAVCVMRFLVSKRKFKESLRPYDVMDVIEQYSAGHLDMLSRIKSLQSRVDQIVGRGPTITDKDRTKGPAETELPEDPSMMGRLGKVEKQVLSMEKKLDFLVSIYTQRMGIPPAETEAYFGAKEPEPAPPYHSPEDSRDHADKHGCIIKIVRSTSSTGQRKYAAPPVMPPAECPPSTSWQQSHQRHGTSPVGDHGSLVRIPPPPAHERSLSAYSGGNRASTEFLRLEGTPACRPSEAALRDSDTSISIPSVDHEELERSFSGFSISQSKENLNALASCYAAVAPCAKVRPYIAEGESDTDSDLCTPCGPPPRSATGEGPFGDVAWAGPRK
KCNQ2 block baseline – also measured in KCNQ2 block; calls as there; B-score; measured here: initial fluorescence intensity artifact check;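 brightness before thallium and not channel activity; 0 = typical well and far values either way flag optical interference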
Active calls of the source: *; i = inactive. A portion of the library (hit frequency here may not be typical).

cpd | Compound | KCNQ2 block | KCNQ2 block baseline
1 | Cc1noc(C)c1S(=O)(=O)N1CCC(C(=O)Nc2ccc(Br)cc2)CC1 | i | 0.39
2 | COc1ccc(OC)c(C2/C(=C(/O)c3cnn(-c4ccccc4)c3C)C(=O)C(=O)N2CCN(C)C)c1 (stereo not given) | i | -2.64
3 | CCOC(=O)C1(Cc2ccccc2)CCN(C2Cc3ccccc3C2)CC1 | i | -1.99
4 | N=c1c(S(=O)(=O)c2ccc(Cl)cc2)cc2c(=O)n3ccccc3nc2n1C1CCCC1 | i | 1.07
5 | C=CCn1c(SCC(=O)N2CCN(c3ccc(F)cc3)CC2)nnc1-c1cccs1 | i | -0.92
6 | Cc1ccc(NC(=O)CN(C)Cc2cccs2)cc1Cl | i | -1.34
7 | CC(C)CCN(C(=O)c1csnn1)C(C(=O)NC1CCCCC1)c1ccc(F)cc1 (stereo not given) | i | 0.66
8 | CCCCCc1cc(=O)oc2c(C(CCN3CCN(c4ccccc4)CC3)c3ccc(N(C)C)cc3)c(OC)cc(OC)c12 (stereo not given) | i | 0.29
9 | CN(C)c1ccc(CNC(=O)C2CCC(CNc3c(N4CCCCC4)c(=O)c3=O)CC2)cc1 (stereo not given) | i | -1.18
10 | Cc1ccc(S(=O)(=O)N(C)CC(=O)O/N=C(\N)c2cccnc2)cc1 | i | -0.59
11 | S=C(NCCC(c1ccccc1)c1ccccc1)Nc1ccccc1Cl | i | -0.08
12 | COc1ccnc(Oc2cccc(C(F)(F)F)c2)c1C(=O)N/C=N/OCc1ccccc1F | i | -0.52
13 | CCC1CCCCN1C(=O)CCn1c(=O)oc2ccccc21 (stereo not given) | i | -0.58
14 | O=C(c1cccc(OCc2ccccc2)c1)N1CCOCC1 | i | -1.54
15 | CCCCCNC(=O)c1ccc2c(=O)[nH]c3c(C(=O)NCC4CCCO4)sc(=S)n3c2c1 (stereo not given) | -5.67* | -2.68*
16 | NC(=S)NN=C(Cc1ccccc1)Cc1ccccc1 | -5.63* | 1.23*
17 | N#CCN1CCC/C1=C\[N+](=O)[O-] | i | 2.79
18 | COC(=O)c1ccccc1NC(=S)NC(NC(=O)COc1ccccc1)C(Cl)(Cl)Cl (stereo not given) | i | 1.89
19 | COc1cc2c(=O)n(CCC(=O)NCC3CCCO3)c(=O)n(CC(=O)Nc3ccc(C)cc3)c2cc1OC (stereo not given) | i | 1
20 | Cc1cc(C)n(C(=O)c2cccc(S(=O)(=O)N3CCOCC3)c2)n1 | i | 1.7

Single records, as listed above. Values in the order: KCNQ2 block	KCNQ2 block baseline
Profile of NC(=S)NN=C(Cc1ccccc1)Cc1ccccc1 → -5.63*	1.23*
Profile of S=C(NCCC(c1ccccc1)c1ccccc1)Nc1ccccc1Cl → i	-0.08
Profile of N#CCN1CCC/C1=C\[N+](=O)[O-] → i	2.79
Profile of C=CCn1c(SCC(=O)N2CCN(c3ccc(F)cc3)CC2)nnc1-c1cccs1 → i	-0.92
Profile of CCOC(=O)C1(Cc2ccccc2)CCN(C2Cc3ccccc3C2)CC1 → i	-1.99

Remaining list, next part:
cpd | Compound | KCNQ2 block | KCNQ2 block baseline
21 | O=C(CSc1ccc2ccccc2n1)c1ccc2c(c1)OCO2 | i | -0.26
22 | O=C(COC(=O)/C=C/c1cccs1)Nc1nc(-c2ccccc2)cs1 | i | -0.63
23 | Nc1nnc(C(c2ccccc2)c2ccccc2)s1 | i | -1.67
24 | Oc1cccc2ccc(/C=C/c3c(F)cccc3Cl)nc12 | i | 0.4
25 | COc1cccc(-c2nc(CS(=O)(=O)CC(=O)NCc3ccc4c(c3)OCO4)c(C)o2)c1 | i | 1.96
26 | CC(/C=N/Nc1nc2ccccc2[nH]1)=C\c1ccccc1 | i | 0.82
27 | COC(=O)/C(=N/Nc1ccccc1C)N1CCCc2ccccc21 | i | 1.13
28 | [N-]=C=C1C(=O)NC(=O)C([n+]2ccc(-c3ccncc3)cc2)C1c1ccccc1C(F)(F)F (stereo not given) | i | -0.66
29 | S=C(NC1CCCCC1)N1CCn2cccc2C1c1ccncc1 (stereo not given) | i | -4.11
30 | CC(=O)Nc1ccc(N2C(=O)CSC2c2ccccc2[N+](=O)[O-])cc1 (stereo not given) | i | 0.22
31 | CCCn1nc(NS(=O)(=O)c2cccc3nonc23)c2cc3cc(C)ccc3nc21 | i | -0.67
32 | O=C(COc1ccc([N+](=O)[O-])cc1)NNC(=O)Nc1ccc([N+](=O)[O-])cc1 | i | 0.65
33 | Cc1ccc(C(=O)COc2cc(O)c3c(=O)cc(-c4ccccc4)oc3c2)cc1 | i | 0.1
34 | CC(C)C(C)NC(=O)COc1nc2ccccc2nc1N(C)C1CCCCC1 (stereo not given) | i | -0.06
35 | COC(=O)c1cccc(C23CC4(C2)[C@H](CN(Cc2ccc(-c5ccccc5)cc2)[C@@H]4c2ccccc2)C3c2ccc(C(F)(F)F)cc2)c1 (stereo not given in full) | i | 1.36
36 | CCO[C@H]1OC(C(=O)Nc2ccccc2)=C[C@@H](c2csc3ccccc23)[C@@H]1CCCO | i | 0.49
37 | O=[N+]([O-])c1cc(-c2ncccn2)c([N+](=O)[O-])s1 | -9.58* | -4.06*
38 | CCCCCn1cnc2c(=S)nc(N)[nH]c21 | i | 0.42
39 | COc1cccc(-c2nc(OC(C)C)c3ccccc3n2)c1 | i | -0.68
40 | O=CC1=C(c2ccccc2)Oc2ccccc2O1 | i | 0.85
41 | Cc1nn(C)c(Oc2ccccc2)c1CCNC(=O)C(C)(C)C | i | 0.86
42 | COc1cccc(N(CC(=O)NC2CCCCC2)C(=O)CCCC(=O)Nc2ccccn2)c1 | i | 0.18
43 | O=C(Nc1ccc(Cl)cc1C(=O)Nc1ccc(Br)cn1)c1ccco1 | i | 1.58
44 | CC(=O)NC(CC(=O)N(Cc1ccccc1)c1ccc(C)cc1)c1ccccc1 (stereo not given) | i | -0.03
45 | Cc1sc(-c2ccccn2)nc1OC(=O)c1ccc(F)cc1F | i | 3.09
46 | CN(Cc1cnn(C)c1)C(=O)C1CCC(=O)N(Cc2cccc(F)c2)C1 (stereo not given) | i | 1.6
47 | Cn1c(=O)c2c(SCc3cccnc3)nc(CC(C)(C)C)nc2n(C)c1=O | i | 0.92
48 | CCC(=O)c1ccc(OCC(=O)OCC(=O)NCC2CCCO2)cc1 (stereo not given) | i | 1.57
49 | CC(=O)Nc1ccc(S(=O)(=O)NC2C3(C)CCC(C3)C2(C)C)cc1 (stereo not given) | i | -0.04
50 | O=C(NCc1ccco1)c1ccc(Br)c(S(=O)(=O)N2CCCCC2)c1 | i | 0.01
51 | CC(=O)CCc1c(C)c2cccc(C)c2[nH]c1=O | i | -0.49
52 | CCC(=O)Nc1ccc(C(=O)CSc2nnc(-c3ccccc3F)n2C2CC2)cc1 | i | 1.26
53 | Cc1nccn1CCCNC(=O)CC1C(=O)NCCN1Cc1ccc(Cl)c(F)c1 (stereo not given) | i | -3.21
54 | COc1ccc(CCNC(=O)c2ccc(NC3=NC4CS(=O)(=O)CC4S3)cc2)cc1OC (stereo not given) | i | -0.14
55 | COCCN(C(=O)COC(=O)c1nc(Cl)ccc1Cl)c1c(N)n(Cc2ccccc2)c(=O)[nH]c1=O | i | 1.88
56 | Cc1cc(C)cc(NC(=O)CN(C)S(=O)(=O)c2cnc[nH]2)c1 | i | -0.13
57 | COc1ccc(NC(=O)[C@@H](NC(=O)c2ccccc2)C(C)C)cc1S(=O)(=O)N1CCCCC1 | i | 0.13
58 | O=C(CN1C(=O)/C(=C\c2cccc(Cl)c2)Oc2ccccc21)N1CCN(c2ccccn2)CC1 | i | -1.61
59 | COc1ccc2sc(N(CCCN(C)C)C(=O)c3ccc(S(=O)(=O)N4CCCc5ccccc54)cc3)nc2c1 | i | -0.4
60 | Cc1cccc(OCCn2cnc(Cl)c2Cl)c1 | i | 0.8
61 | COc1ccc(C)cc1N(CC(=O)N/N=C/c1ccc2c(c1)OCO2)S(C)(=O)=O | i | 0.46
62 | COn1c(C)c(C(C)=O)c2c3nonc3ccc21 | i | 1.07
63 | Cn1nc(-c2ccccc2)c(C#N)c1Sc1cccc(Cl)c1 | -8.14* | -1.9*
64 | O=C1C2C3c4ccccc4C(c4ccccc43)C2C(=O)N1c1cccnc1 (stereo not given) | i | 1.13
65 | COc1cc(CNC(=O)CCn2nc(C)c3c(C)n(-c4ccccc4)nc3c2=O)cc(OC)c1OC | i | -0.69
66 | CCN(CC)C(=O)c1sc(NC(=S)N2CCN(C(=O)C3CCCO3)CC2)c(C(=O)OC)c1C (stereo not given) | i | -1.32
67 | CN(c1cccc(NC(=O)c2ccc(Cl)c(S(=O)(=O)N3CCOCC3)c2)c1)S(C)(=O)=O | i | -1.73
68 | COc1ccc(N(CCC(=O)Nc2ccccc2F)S(=O)(=O)c2ccc(C)cc2C)cc1 | i | 0.23
69 | CCOC(=O)C1CCN(C(=O)C2CCN(S(=O)(=O)N3CCCC3)CC2)CC1 | i | -1.03
70 | CCc1cccc(NC(=O)CC2Oc3ccccc3NC2=O)c1 (stereo not given) | i | 0.01
71 | NC(=O)CSc1nnc(COc2ccccc2)n1N | i | 1.52
72 | COc1ccc(-n2ccnc2SCC(=O)Nc2cc(C)on2)cc1 | i | -0.01
73 | CSCCC(NC(=O)c1cc(C(C)(C)C)oc1C)C(=O)O (stereo not given) | i | -0.33
74 | O=C(O)c1ccc(CS(=O)(=O)Cc2ccccc2F)o1 | i | 0.02
75 | CCN(CC)S(=O)(=O)c1ccc2oc(SCC(=O)Nc3cc(C)on3)nc2c1 | i | -0.1
76 | COc1ccc(OC)c(NC(=O)c2cc3n(n2)C(C(F)(F)F)CC(c2ccc4c(c2)OCO4)N3)c1 (stereo not given) | i | -2.41
77 | O=C(CN1CCN(c2ccc(F)cc2)CC1)c1cccs1 | i | 1.23
78 | Cc1cc(C(=O)CN2C(=O)NC(CC(C)C)C2=O)c(C)n1-c1ccccc1F (stereo not given) | i | -0.23
79 | Cc1cc(=O)oc2ccc(OC(C)C(=O)O)cc12 (stereo not given) | i | 1.07
80 | Cc1nonc1NC(=O)CSc1ccccn1 | i | -0.35

Retrieved by structure from the entries so far:
cpd | Compound | KCNQ2 block | KCNQ2 block baseline
61 | COc1ccc(C)cc1N(CC(=O)N/N=C/c1ccc2c(c1)OCO2)S(C)(=O)=O | i | 0.46
75 | CCN(CC)S(=O)(=O)c1ccc2oc(SCC(=O)Nc3cc(C)on3)nc2c1 | i | -0.1

In the list so far, 3 contain a tert-butyl group:
cpd | Compound | KCNQ2 block | KCNQ2 block baseline
41 | Cc1nn(C)c(Oc2ccccc2)c1CCNC(=O)C(C)(C)C | i | 0.86
47 | Cn1c(=O)c2c(SCc3cccnc3)nc(CC(C)(C)C)nc2n(C)c1=O | i | 0.92
73 | CSCCC(NC(=O)c1cc(C(C)(C)C)oc1C)C(=O)O (stereo not given) | i | -0.33

Later entries.
cpd | Compound | KCNQ2 block | KCNQ2 block baseline
81 | CC(NC(=O)c1cc(-c2ccccn2)nc2ccc(Cl)cc12)C1CCCO1 (stereo not given) | i | 0.14
82 | CC(OC(=O)c1ccco1)C(=O)NC1CCCCC1 (stereo not given) | i | -0.37
83 | O=C(NC1CCCCCC1)C1CCN(S(=O)(=O)c2cnc[nH]2)CC1 | i | 1.83
84 | O=C(c1ccc(NS(=O)(=O)c2ccc(F)cc2)cc1)N1CCCCC1 | i | 1.73
85 | O=C1Nc2ccccc2/C1=C/c1ccc([N+](=O)[O-])cc1 | i | -1.56
86 | C=CCn1c(NCc2ccccc2OC)nc2ccccc21 | i | -1
87 | Cc1ccccc1NC(=O)C(=O)NCc1ccccn1 | i | -1.89
88 | COc1ccc(-n2ncc3c2CC(C)(C)CC3NC(=O)C2CCN(C(C)=O)CC2)cc1 (stereo not given) | i | -0.8
89 | CCC1SC2=NC(C)=C(C(=O)OCCOC)C(c3ccc(C(=O)OC)cc3)N2C1=O (stereo not given) | i | -0.13
90 | O=C(c1ccc2[nH]c(=O)c(=O)[nH]c2c1)N1CCc2ccccc2C1 | i | 0.29
91 | Cc1ccc(C(=O)CSc2nnnn2-c2ccccc2)o1 | i | 1.39
92 | Nc1c(C(=O)NCCN2CCOCC2)c2nc3ccccc3nc2n1-c1cccc(F)c1 | i | -3.73
93 | C[C@]12CS(=O)(=O)C[C@H]1SC(=S)N2c1ccccc1 | i | -1.31
94 | Nn1c(SCC(=O)Nc2ccc3c(c2)OCO3)nnc1-c1ccccc1 | i | -0.24
95 | Cc1nc2c(C(=O)NCc3ccc4c(c3)OCO4)cnn2c(C)c1Cc1ccc(F)cc1Cl | i | 0.93
96 | CC1(C)CC2CC(C)(CN2C(=O)CN2C(=O)c3ccccc3C2=O)C1 (stereo not given) | i | 1.79
97 | CCOC(=O)CC(NC(=O)Cn1nnc(-c2ccccc2C)n1)c1ccc(OC)cc1 (stereo not given) | i | 1.24
98 | Cc1ccc(N2C(=O)N(CC(=O)NC(c3ccccc3)c3ccccc3)C(=O)C2C)cc1 (stereo not given) | -5.96* | -1.12*
99 | CCOC(=O)c1[nH]c(C)c(C(=O)N2CCN(C(=O)OCC)CC2)c1CC | i | 0.01
100 | CCCN1C(=O)C(O)(CC(=O)c2cccc(OC)c2)c2ccccc21 (stereo not given) | i | 0.08
101 | CCOC(=O)c1c(-c2ccccc2)oc2cc(Br)c(O)c(C=O)c12 | i | 2.39
102 | O=C(O)c1cccc(-n2c(-c3cnccn3)n[nH]c2=S)c1 | i | 0.89
103 | O=C(COC(=O)c1ccccc1Nc1cccc(C(F)(F)F)c1)NCc1ccco1 | i | -1.39
104 | CC(=O)NC(CCS(C)(=O)=O)C(=O)Nc1ccccc1C (stereo not given) | i | 0.83
105 | O=C(CNS(=O)(=O)c1cccc2nsnc12)NCCc1ccccc1 | i | -0.51
106 | CCc1ccc(/C=N/n2c(C3CCCCC3)n[nH]c2=S)cc1 | i | 0.17
107 | O=C1c2ccccc2NC(c2ccccc2O)N1c1ccc(F)cc1 (stereo not given) | i | -1.01
108 | COc1ccc(/C(O)=C/C(=O)C(=O)NNC(=O)c2ccccc2)cc1 | i | -2.02
109 | Cc1ccc(/C=C/C(=O)O)cc1S(=O)(=O)NCC1CCCO1 (stereo not given) | i | 2.79
110 | O=C(O)c1ccc(S(=O)(=O)c2ccc([N+](=O)[O-])cc2[N+](=O)[O-])cc1 | i | -1.92
